PrP 5UTR inh – inhibition of PrP 5' UTR reporter expression; cell-based PrP 5' UTR mRNA reporter, plate reader; inhibition, % (no concentration beside the values); 340,000 compounds, 0.35% hits;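 active = every replicate at 50% or more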;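 also: 0 = median of the neutral control wells; tested in H4 reporter cells; numbers are from one replicate; inactives centre near -14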
Bead autofluor – compound fluorescence in toxin protease inhibitor counterscreen; compound autofluorescence counterscreen, microsphere flow cytometry; active compounds read high; fluorescence intensity (concentration not given with the values); 360,000 compounds, 3.1% hits; AID 624483;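 active = at least 3 SD above the mean of all compounds, about 16000 in these data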;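 also: 100 nL of 1 mM stock went into each well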
ugtP null kill – kills S. aureus RN4220 lacking UgtP; S. aureus RN4220 ugtP deletion, OD600 growth, 16 h; some inactives read as strong as hits; 330,000 compounds, 0.54% hits; growth inhibition, % (concentration not given with the values);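 active = z-score under -3 and OD600 up to 0.15 on both plates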;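 also: plate controls were untreated wells for no effect and antibiotic for full effect; wells of about 80 µL received 100 nL stock; the first replicate is given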
BJeLR lethal – kills HRASV12-expressing BJeLR cells. 300,000 compounds, 0.17% hits. inhibition, % (no concentration beside the values). BJeLR (HRASV12) viability, CellTiter-Glo ATP luminescence, 48 h; reference of the scale not given here. AID 1554;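 active = replicate mean above 50%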;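 also: 50 nL library stock added to about 25 µL; numbers are from one replicate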
Mtb hypoxia rep – inhibitors of hypoxia-regulated fluorescent reporter in Mycobacterium tuberculosis | M. tuberculosis hypoxia-regulated fluorescent reporter, fluorescence | fluorescence inhibition, % (test concentration not listed) | 300,000 compounds, 0.1% hits | AID 1159583;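 active = 35 to 45% if threefold the growth effect, above 45% if 1.5-fold the growth effect; inactive = the rest, general growth blockers included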;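 also: wells of about 50 µL received 100 nL stock; 0% = vehicle wells and 100% = reference inhibitor wells; whole bacteria with a GFP reporter of the hypoxia response; strong numbers were not always called active; many hits fall short of the cut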
Sa RN4220 lethal – kills Staphylococcus aureus RN4220 | S. aureus RN4220 growth, OD600, 16 h | inhibition, % (no concentration beside the values) | 330,000 compounds, 0.33% hits | AID 1259311;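 active = z-score of -3 or lower and OD600 up to 0.18 on both plates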;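 also: plate controls were untreated cells for no effect and reference antibiotic for full effect; stock transfer was 100 nL into about 80 µL; one replicate is shown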
Mtb hypoxia rep growth – also measured in Mtb hypoxia rep; calls as there; growth inhibition, %; measured here: M. tuberculosis growth (absorbance);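 0% = vehicle and 100% = reference antibiotic; read after six days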
* = called active by the depositor; . = not tested or not shown.

SMILES	PrP 5UTR inh	Bead autofluor	ugtP null kill	BJeLR lethal	Mtb hypoxia rep	Mtb hypoxia rep growth	Sa RN4220 lethal
COc1ccccc1CNC(=O)COC(=O)C1=COCCO1	-18.9	3299	.	7.9	.	.	.
FC(F)(F)c1ccnc(NCc2ccco2)n1	-13.7	4654	1.9	-5.7	3.4	3.1	0.4
CC(C)(C)OC(=O)N1CCC(c2c(C(=O)NC3CC3)cnn2-c2ccccc2)CC1	-29.0	5530	0.9	7.3	-0.7	2.4	2.8
COC(=O)CNC(=O)C(NC(=O)c1ccc(Cl)cc1)C(C)C (stereo unspecified)	3.5	3943	-3.0	29.6	-3.9	8.7	-1.3
CCn1c(-c2cc3ccccc3cc2O)n[nH]c1=S	-7.8	15100	0.7	7.4	0.5	-0.8	-0.8
C=CCc1ccc(OCC(O)CN2CCc3ccccc3C2)c(OC)c1 (stereo unspecified)	-4.2	.	3.4	-2.7	9.8	4.0	3.4
O=C(C1CCCCC1)N(Cc1nc2sc3c(c2c(=O)[nH]1)CCCC3)Cc1cccs1	-17.9	4278	29.0	2.0	.	.	0.8
C=CCSc1nnc(NC(=O)c2ccc(N3CCCC3=O)cc2)s1	-24.2	3509	-11.5	.	12.7	2.0	8.2
Cc1cc(N2CCN(c3ncccn3)CC2)nc2c(C)cccc12	-17.9	3685	9.0	3.8	13.0	9.0	6.0
O=c1[nH]cnc2nn(-c3ccccc3)nc12	-37.8	3466	1.2	-1.4	.	.	5.1
Cc1ccc(Cl)cc1N1CCN(Cc2nnnn2C2CCCCC2)CC1	-9.6	2400	-22.4	-1.7	.	.	-2.7
COc1ccc(NC(=O)C2CCCN2C(=O)NC2CCCCC2)cc1 (stereo unspecified)	-19.4	5025	1.3	-0.7	7.2	3.4	3.6
O=C(CSc1nnc2ccccn12)NCc1ccco1	-14.9	3494	3.7	4.6	10.8	9.0	4.8
CC(C)(C)OC(=O)N1CCC[C@H]1c1nnc(SCc2ccccc2)o1	.	.	-5.6	4.0	-5.2	10.0	-4.1
O=C(O)C1CCN(C(=O)COc2ccc3c4c(c(=O)oc3c2)CCCC4)CC1	0.1	3947	-6.3	-1.1	.	.	2.1
O=C(N/N=C/c1ccccn1)c1cccc(NC(=O)c2ccccc2Cl)c1	-18.5	3982	.	3.4	.	.	.
CCOC(=O)CCS(=O)(=O)c1ccc(-c2ccc(S(=O)(=O)CCC(=O)OCC)cc2)cc1	-22.5	10365	-1.5	-1.9	4.8	12.4	5.2
CCCn1c(C(O)c2ccc(OCC)cc2)nc2ccccc21 (stereo unspecified)	-61.0	5523	7.9	18.3	6.2	4.6	-3.2
CC(C)(CNS(=O)(=O)c1ccc2ccccc2c1)N1CCOCC1	-1.5	3336	2.6	.	0.6	7.6	2.0
CCCC[C@H]1COCCS(=O)(=O)N1Cc1cccc([N+](=O)[O-])c1	-26.5	4021	.	5.1	.	.	.
CC(=O)Nc1ccc(NC(=O)C2CCCN2/C=C/C(=O)C(F)(F)F)cc1 (stereo unspecified)	-10.7	4248	0.5	7.5	8.6	-1.1	1.2
CCN(CC)c1ccc(/C=C2\C(=O)NC(=S)N(C)C2=O)o1	-71.8	.	-0.1	-9.9	58.4*	13.0*	2.6
COc1ccc(C(CNC(=O)c2cccc(S(=O)(=O)Nc3ccc(F)cc3)c2)N2CCCCC2)cc1 (stereo unspecified)	-14.1	5445	10.0	.	4.4	1.5	-4.1
CC1=CC(=O)C=C(C)C1=NOS(=O)(=O)c1ccccc1	-4.4	4860	12.1	82.1*	.	.	3.7

At a glance, some entries already given.
SMILES	PrP 5UTR inh	Bead autofluor	ugtP null kill	BJeLR lethal	Mtb hypoxia rep	Mtb hypoxia rep growth	Sa RN4220 lethal
CC(C)(CNS(=O)(=O)c1ccc2ccccc2c1)N1CCOCC1	-1.5	3336	2.6	.	0.6	7.6	2.0
CCCC[C@H]1COCCS(=O)(=O)N1Cc1cccc([N+](=O)[O-])c1	-26.5	4021	.	5.1	.	.	.
CC(=O)Nc1ccc(NC(=O)C2CCCN2/C=C/C(=O)C(F)(F)F)cc1 (stereo unspecified)	-10.7	4248	0.5	7.5	8.6	-1.1	1.2
CCN(CC)c1ccc(/C=C2\C(=O)NC(=S)N(C)C2=O)o1	-71.8	.	-0.1	-9.9	58.4*	13.0*	2.6
COc1ccc(C(CNC(=O)c2cccc(S(=O)(=O)Nc3ccc(F)cc3)c2)N2CCCCC2)cc1 (stereo unspecified)	-14.1	5445	10.0	.	4.4	1.5	-4.1
CC1=CC(=O)C=C(C)C1=NOS(=O)(=O)c1ccccc1	-4.4	4860	12.1	82.1*	.	.	3.7

Following part
SMILES	PrP 5UTR inh	Bead autofluor	ugtP null kill	BJeLR lethal	Mtb hypoxia rep	Mtb hypoxia rep growth	Sa RN4220 lethal
COc1ccc(N2CCN(Cc3cc(=O)c(OCC(=O)NC4CCCC4)co3)CC2)cc1	-18.6	4578	8.5	1.8	7.5	-3.9	4.5
NNc1nc2sc3c(c2c(=O)n1C1CCCCC1)CCN(Cc1ccccc1)C3	-19.4	4192	1.5	-6.5	3.3	5.5	0.8
CCN(c1ccccc1)S(=O)(=O)c1ccc(Cl)c(C(=O)NC2CCN(Cc3ccccc3)CC2)c1	-9.6	.	4.2	.	-4.8	7.9	6.0
CCC1Oc2ccc(C)cc2N(CC(=O)NCCc2ccc(OC)c(OC)c2)C1=O (stereo unspecified)	-15.4	4302	8.3	5.2	6.5	7.5	2.9
COCC(=O)N1CCCN(c2nc3c(C)cccc3cc2C#N)CC1	2.8	2680	6.1	3.8	.	.	6.2
CCc1ccc(CNC(=O)CCc2nc(-c3cccs3)no2)cc1	-20.1	5810	6.2	-10.5	-1.3	0.5	-2.5
CCOC(=O)c1cc(CC)sc1NC(=O)CN1CCN(C(=O)C2CCCO2)CC1 (stereo unspecified)	2.7	4224	-3.7	6.8	14.7	17.0	-0.3
COc1ccc(-n2c(=S)[nH]c3cc(C(=O)NCCCN4CCOCC4)ccc3c2=O)cc1	-13.2	6540	0.4	-6.6	-5.5	-8.3	2.9
CN1C(=O)NC(c2ccccc2[N+](=O)[O-])C2=C1CCCC2=O (stereo unspecified)	10.7	5656	15.4	-14.7	-4.1	6.6	2.3
CC(=O)c1cccc(NC(=O)CCS(=O)(=O)c2cc3c(cc2C)NC(=O)CO3)c1	-6.9	5544	-1.5	-2.3	-0.4	8.4	1.1
COc1cc(/C=C2\C(=N)N3N=C(C)SC3=NC2=O)cc(Cl)c1OCCOc1ccc(NC(C)=O)cc1	-32.2	3771	3.3	6.1	-6.0	2.7	1.6
CCCC[n+]1c(C)sc2cc(OC)ccc21	-9.7	3241	16.6	7.9	11.0	6.8	5.5
CCN(CC)CCn1c(=S)[nH]c2cc3c(cc2c1=O)OCO3	-31.0	23550*	8.9	2.6	3.6	3.2	2.1
C[C@H](CO)N1C[C@H](C)[C@@H](CN(C)Cc2ccc3c(c2)OCO3)Oc2ccc(NC(=O)Cn3cnnn3)cc2C1=O	-6.0	3016	-7.5	.	3.7	9.9	-11.9
CCN(CC(=O)NCc1ccc(F)cc1)C(=O)c1ccc(COc2ccccc2)cc1	-33.3	3962	6.5	15.3	7.5	5.1	-3.8
Cc1ccc(C(=O)NNc2nc3ccccc3nc2C(F)(F)F)cc1	-11.3	2784	5.4	-8.5	.	.	-2.4
Cc1cc(C)c2nc(NCc3ccccc3O)sc2c1	-49.4	3677	4.2	3.6	-4.6	-0.1	-6.1
COc1ccc(Cn2ccnc2SCC(=O)Nc2ccccc2F)cc1	-14.1	5500	15.1	-2.8	3.9	6.3	0.1
O=C(Cn1ccc2ccccc2c1=O)NCCC(=O)N1CCN(c2cccc(Cl)c2)CC1	4.5	3672	-5.6	2.6	18.8	15.3	3.4
COc1ccc(CCNC(=O)C(=O)NCC2OCCN2C(=O)c2ccc(Cl)cc2)cc1OC (stereo unspecified)	-19.4	6407	-6.1	1.2	7.3	5.4	4.3
Cn1cc(Br)c(C(=O)NNC(=O)c2ccc(Br)cc2)n1	-14.4	2530	-2.5	.	0.8	-6.1	7.4
Cc1nc2nc(SCC(=O)c3ccc([N+](=O)[O-])cc3)[nH]c2cc1Br	-1.3	2430	-15.0	-7.2	-7.9	2.7	-0.8
Cc1ccc2cc(C#N)c(N3CCCN(S(=O)(=O)c4ccccc4)CC3)nc2c1C	-10.3	14145	-2.2	-18.8	1.6	0.5	3.6
O=C(CNC(=O)c1cccs1)Nc1ccc(N2CCOCC2)cc1	-17.0	3822	2.4	.	3.7	4.8	-1.4
C=C1N2CCC(CC2)C1(O)c1ccc(C)cc1 (stereo unspecified)	-12.2	4625	0.9	0.1	17.7	16.2	6.4
COc1ccc(C)cc1S(=O)(=O)Nc1cc2c3c(c1)C(C)C(=O)N3CCC2 (stereo unspecified)	-29.0	6374	10.4	9.8	-2.2	0.5	6.3
Cc1c(NC(=O)C(C)N(c2ccccc2)S(C)(=O)=O)c(=O)n(-c2ccccc2)n1C (stereo unspecified)	-12.4	4830	.	0.6	.	.	.
Cc1c(NC(=O)CCCCCN2C(=O)C3C4C=CC(C4)C3C2=O)c(=O)n(-c2ccccc2)n1C (stereo unspecified)	-19.1	5399	5.9	3.1	7.6	5.7	2.4
Cc1c(C(=O)N2CCN(S(=O)(=O)c3cccs3)CC2)oc2ccc(F)cc12	-1.1	5854	0.7	.	-5.9	5.3	2.2
C/C(Cl)=C/CC1(CN2CCCC2=O)C(=O)NC(=O)NC1=O	-13.3	2926	.	-1.2	.	.	.
COc1ccc(/C=C(\NC(=O)c2ccccc2)C(=O)N2CCN(C)CC2)cc1	-3.9	2985	-0.1	-4.9	-3.9	-3.7	-0.8
COc1ccc2cc(CCNC(=O)CCc3ccccc3)c(=O)[nH]c2c1	-4.6	4051	10.3	-4.6	17.1	2.9	1.1
O=C(NCc1ccccc1)Nc1cccn(Cc2c(F)cccc2Cl)c1=O	-13.5	4456	0.3	4.1	4.1	2.9	7.6
O=C(CCCCCCCC(=O)N1CCCCC1)N1CCCCC1	-3.4	3423	3.2	.	6.9	17.2	3.0
Cc1[nH]c2ccccc2c1SCC(=O)NNC(=O)Nc1ccc(OC(F)(F)F)cc1	-18.9	6617	-11.8	-1.7	7.1	6.5	-9.1

Assay outcomes deposited in PubChem BioAssay by several laboratories.
